Hsc70: Hsc70 inhibitors, probe displacement, primary screen, biochemical, fluorescence polarization (AID 568) | Heat shock cognate 71 kDa protein (Homo sapiens) | Hsc70 fluorescence polarization, probe displacement; higher % means a stronger effect; strong numbers were not always called active | one-dose displacement, % at 20 µM; IC50 in µM for titrated hits | 83,000 tested, under 10 active;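 active = displacement above 50% without optical interference and an IC50 on retest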;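 note: ATPase domain with a fluorescein-tagged ATP probe; 0% = vehicle and 100% = excess ADP; read after one hour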
WNV protease inh: inhibitors of WNV NS2B-NS3 protease, primary screen, biochemical, fluorogenic substrate. Genome polyprotein (West Nile virus), P06935. fluorogenic substrate Ex360/Em465; hits give low values. z-score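 (tested at a level between 10 and 100 µM)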. actives 0.18% (n = 65,000). AID 577, 2007;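 active = z-score at -3 or under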;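 note: score is relative to mean and spread of the compound wells of a plate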
Target sequence (P06935 1371-1501 limits assumed): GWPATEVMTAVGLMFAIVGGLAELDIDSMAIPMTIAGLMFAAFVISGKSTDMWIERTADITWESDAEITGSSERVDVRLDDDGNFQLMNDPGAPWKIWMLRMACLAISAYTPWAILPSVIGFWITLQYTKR
Target sequence (P06935 1502-1679 limits assumed): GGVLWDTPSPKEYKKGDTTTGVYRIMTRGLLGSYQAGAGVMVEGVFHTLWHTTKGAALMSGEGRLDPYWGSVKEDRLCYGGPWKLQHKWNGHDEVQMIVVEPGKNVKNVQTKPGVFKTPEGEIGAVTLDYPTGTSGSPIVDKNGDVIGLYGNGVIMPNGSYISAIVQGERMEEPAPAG
MT1-MMP promoter: inhibitors of MT1-MMP promoter transcription, cell-based, luciferase reporter, luminescence (AID 618); MT1-MMP promoter luciferase reporter cells, luminescence; calls from a first round at 10 µM; hits with a dose series show EC50 in µM; actives 0.62% (n = 87,000);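 active = over half of the reporter light lost at 10 µM or EC50 under 50 µM; inactive = the rest and hits that failed the dose series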;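 note: actives suppress MT1-MMP promoter-driven transcription so potencies describe inhibitors; HT1080 fibrosarcoma cells; overnight exposure; toxic or luciferase-blocking compounds were not removed from the actives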
The depositor's hits bear a star; i = inactive; x = no result given; + = active, no number.

molecule	Hsc70	WNV protease inh	MT1-MMP promoter
O=c1[nH]c2c(n(C3CCCCC3)c1=O)CCC2	-2.9%	-0.85	i
COc1cccc(-c2cc(C(=O)Nc3cc(C)on3)no2)c1	0.0%	-1.7	i
CCCc1n[nH]c2c1C(=O)C(C(=O)OC)C(C)(C)C2 (stereo unspecified)	-0.9%	1	i
CSc1nnc2n(C3CCCCC3)c(=O)c3c4c(sc3n12)CCCC4	3.1%	1	i
CCCCC(=O)Nc1nc2c(OC)ccc(OC)c2s1	3.5%	-0.19	i
O=C(NCc1ccncc1)C1CCN(S(=O)(=O)Cc2ccccc2)CC1	5.1%	x	i
Cc1nc(N2CCN(Cc3ccc4c(c3)OCO4)CC2)c2oc3ccccc3c2n1	-4.8%	-0.21	i
Cc1ccc(C(C(=O)NCc2ccccc2)N(C(=O)c2csnn2)c2cccc3ccccc23)o1 (stereo unspecified)	-2.4%	x	i
Cc1ccc2c(CC(=O)Nc3c(C)n(C)n(-c4ccccc4)c3=O)coc2c1	-5.4%	0.24	i
Cc1cc(NC(=O)CCCN2C(=O)c3cccnc3C2=O)no1	-3.5%	1	i
CC(=O)c1ccc(OCC(O)CN2C(C)(C)CC(O)CC2(C)C)cc1 (stereo unspecified)	3.3%	2.5	i
CCOC(=O)c1nnn(-c2nonc2N)c1CNc1ccc(C)c(Br)c1	-1.2%	0.4	i

The listing continues.
molecule	Hsc70	WNV protease inh	MT1-MMP promoter
CCCCSc1nc2c(c(=O)[nH]1)CCC2	-3.1%	0.46	i
Cn1nc(C(=O)Nc2cccnc2)c2ccccc2c1=O	1.6%	-0.05	i
Cc1cc(C)nc(N2CCCC(C(=O)NCc3cccc(C(F)(F)F)c3)C2)n1 (stereo unspecified)	-3.2%	-0.62	i
O=C(COc1ccc(Cl)cc1)NCc1nnc(SCC(=O)NC2CCCCC2)o1	3.6%	-0.76	i
Cc1nn(Cc2ccc(Cl)cc2)c(=O)n1N(C)c1ncc(C(F)(F)F)cc1Cl	-0.4%	x	i
COc1ccc2[nH]c3c(c2c1)CCn1c-3nc2ccccc2c1=O	-4.0%	0.02	+
O=C(Oc1ccc(N2C(=O)CCC2=O)cc1)c1ccccc1	4.1%	x	i
CCn1cc(C2=NC(C(C)C)CO2)c2ccccc21 (stereo unspecified)	0.7%	-0.3	i
CCCC(C(=O)NCc1ccc(OC)cc1)N(Cc1ccco1)C(=O)c1snc(C(N)=O)c1N (stereo unspecified)	0.8%	-0.91	i
CCOCCc1nnc(NC(=O)c2cccs2)s1	1.3%	0.94	i
CSc1nsc(SC)c1C(=O)N1CCN(S(=O)(=O)c2ccc(C)cc2)C1C (stereo unspecified)	-5.5%	0.06	i
CC(=O)NNC(=O)c1ccncc1	-1.3%	x	i

Next results:
molecule	Hsc70	WNV protease inh	MT1-MMP promoter
COc1ccc(C(C)=O)cc1CN(C)C	-3.4%	x	i
COCCN(CCOC)S(=O)(=O)c1ccc(C(=O)NCCCN2CCOCC2)cc1	1.6%	-1.1	i
CCn1cc(C(=O)O)c(=O)c2cnc(N3CCN(C(=O)Nc4cccc5ccccc45)CC3)nc21	-9.7%	0.82	i
Cc1cccc(C)c1NC(=O)CN(C)CC(=O)Nc1cc(Cl)ccc1C#N	-1.2%	x	i
Cn1c(=O)c2c(nc(CN3CCC(C(N)=O)CC3)n2Cc2c(Cl)cccc2Cl)n(C)c1=O	-0.7%	0.49	i
COc1ccc(-c2nnc(SCC(=O)N3CCOCC3)o2)cc1OC	-2.7%	-1.3	i
Fc1ccccc1CSc1nnnn1-c1ccc2c(c1)OCO2	5.1%	1.1	i
Cc1cc(C)cc(Nc2ccc(C(=O)O)cc2N)c1	-11%	1.1	i
Cc1cccc(NC(=O)c2cc(NC(=O)c3ccco3)ccc2N2CCCCC2)c1	2.0%	-0.01	i
COc1ccc(C(CC(=O)c2ccccc2)C2CCCCC2=O)cc1 (stereo unspecified)	-0.3%	x	i
CCOC(=O)c1cc2sccc2n1CC(=O)Nc1ccc2c(c1)OCCO2	1.1%	-0.13	i
Cc1c(Cl)cccc1NC(=O)NC1CCCCC1	-0.2%	2.7	i

The listing continues:
molecule	Hsc70	WNV protease inh	MT1-MMP promoter
O=S(=O)(NCc1ccncc1)c1ccc(Br)s1	-1.7%	-0.48	i
CC(C)Oc1nnnn1-c1ccccc1	0.0%	x	i
COc1ccccc1CNC(=O)CCN1C(=O)COc2ccc(C)cc21	-2.8%	1.4	i
Cc1ccc(-c2noc(CCC(=O)NC3CCCc4ccccc43)n2)cc1 (stereo unspecified)	-12%	-0.86	i
CC(=O)Nc1ccc(OCC(O)CN2CCN(c3ccc(Cl)cc3)CC2)cc1 (stereo unspecified)	-4.6%	x	i
CC1CCCCN1Cc1nc2c(c(=O)n(C)c(=O)n2C)n1CCc1ccccc1 (stereo unspecified)	-2.7%	-0.72	i
COc1ccc2c(=O)c(-c3ccccc3C)c(C)oc2c1	-0.2%	x	i
COc1ccc2[nH]c(=O)c(CN(CCO)S(=O)(=O)c3ccc4c(c3)OCCO4)cc2c1	0.1%	0.22	i
CC1(C)Cc2c(sc(NC(=O)c3ccc(Br)o3)c2C#N)CO1	-2.5%	-0.09	i
Cc1cc(C)c2cc(CN(CC3CCCO3)S(=O)(=O)c3ccc4c(c3)OCCO4)c(=O)[nH]c2c1 (stereo unspecified)	-2.5%	-0.97	i
COc1ccccc1CNCc1cccs1	-0.2%	1.5	i
Cn1c(CCN2CCN(c3ccc(F)cc3)CC2)nc2cc(NC(=O)c3ccco3)ccc21	14%	0.01	i

(more compounds)
molecule	Hsc70	WNV protease inh	MT1-MMP promoter
CCc1ccc(Nc2oc(C)cc(=O)c2C(C)=O)cc1	2.4%	-0.57	i
Cc1cc(Nc2cccc(C(F)(F)F)c2)n2nc(C)nc2n1	-0.5%	0.64	i
CC(C)OC(=O)CSc1nnc(-c2ccc(C(C)(C)C)cc2)n1N	-5.9%	-0.77	i
Cc1c(Br)cc(C(=O)NCc2ccco2)c(C)c1C	0.8%	0.87	i
O=C(NCCCN1CCOCC1)c1cc2c(s1)CCCC2	-5.0%	-0.64	i
CC1CCN(C(=O)CSc2ccc3nnc(-c4cccc(F)c4)n3n2)CC1	2.2%	-0.67	i
c1ccc(N2CCN(c3ncnc4scc(-c5cccs5)c34)CC2)cc1	-1.4%	0.95	i
COC(=O)/C(=C\Nc1cccc(Cl)c1C)c1ncc(C(F)(F)F)cc1Cl	1.6%	x	i
Cc1ccc(C(C(=O)NC2CCCC2)N(C(=O)c2csnn2)C2CCCC2)o1 (stereo unspecified)	0.0%	-0.43	i
CN1/C(=C/C(=O)c2nc(S(C)(=O)=O)ncc2Cl)C(C)(C)c2ccccc21	-5.3%	-1.6	16µM*
CCCS(=O)(=O)c1nc(S(=O)(=O)c2ccc(C)cc2)c(NCCN2CCOCC2)s1	0.9%	-0.62	i
CCc1cccc(C)c1NC(=O)CN1C(=O)c2ccccc2S1(=O)=O	3.5%	-1.2	i

Later entries:
molecule	Hsc70	WNV protease inh	MT1-MMP promoter
S=C1NC2=C(CCCC2)C2(CCCCC2)N1	2.2%	x	i
O=C(Cc1ccccc1)Nc1ccc(N2CCCC2)cc1	-1.3%	x	i
CCOC(=O)C1CCCC(NS(=O)(=O)c2ccc(NC(C)=O)cc2)C1 (stereo unspecified)	2.3%	x	i
COc1ccc2cnn(-c3ccccc3C)c(=O)c2c1OC	-5.6%	0.53	i
O=C(NCCc1csc(-c2ccccc2)n1)c1cccs1	0.9%	-0.44	i
Cc1cc(C)cc(OCC(=O)Nc2ccc(N3CCN(S(C)(=O)=O)CC3)cc2)c1	0.2%	0.38	i
Cc1ccc(S(=O)(=O)N2CCC(C(=O)N[C@@H](C)C(=O)NCCc3ccccc3)CC2)cc1	3.7%	-1.2	i
O=c1[nH]ncc2c3ccccc3n(Cc3ccccc3F)c12	2.1%	1.6	i
CCOc1ccc(NS(=O)(=O)c2ccc(OC)c(C)c2)cc1	-1.2%	x	i
c1ccc(-c2nc(-c3ccco3)cs2)nc1	3.8%	0.3	i
Cc1nn(CC(O)c2ccccc2)c(C)c1Br (stereo unspecified)	2.5%	x	i
Cc1ccccc1-c1nc(CS(=O)(=O)CC(=O)NCc2ccccc2)c(C)o1	2.0%	0.24	i

Further entries follow:
molecule	Hsc70	WNV protease inh	MT1-MMP promoter
COCCCN1C(=O)c2[nH]nc(-c3ccccc3O)c2C1c1cccc(Cl)c1 (stereo unspecified)	0.5%	0.66	i
CCOc1ccccc1N(CC(=O)N1CCCCCC1)S(C)(=O)=O	2.2%	0.78	i
CN1C(=O)CC(N2CCC(C(N)=O)CC2)C1=O (stereo unspecified)	-0.2%	x	i
Cc1c(NC(=O)N(C)C)c(=O)n(-c2ccccc2)n1C	-2.5%	x	i
CCN(C(=O)CSc1nnc(Cc2ccccc2F)n1N)C1CCS(=O)(=O)C1 (stereo unspecified)	0.7%	x	i
CCNc1nc(NC(C)C)nc(Oc2ccc(OCCOc3ccc(C)cc3)nn2)n1	-2.1%	-0.47	i
CCOc1ccc(NC(=O)c2ccccc2NC(=O)CN2CCN(C(C)=O)CC2)cc1	0.0%	0.03	i
CCCC(=O)OC1CC(C)N(C(=O)c2ccccc2)c2ccc(C)cc21 (stereo unspecified)	-1.2%	x	i
O=C(CN1C(=O)c2cccc3cccc1c23)Nc1cccnc1	-0.2%	-1.8	i
COc1ccc2c(c1)C(C)=CC(C)(C)N2C(=O)C(C)N1C(=O)c2ccccc2C1=O (stereo unspecified)	-3.0%	0.53	i
Clc1ccc(Cn2cccc2C2=NCCO2)cc1	-2.7%	0.45	i
CCOc1cccc(N2C(=O)CC(n3cnc4ccccc43)C2=O)c1 (stereo unspecified)	-1.1%	-0.27	i

(cont.)
molecule	Hsc70	WNV protease inh	MT1-MMP promoter
CCC(C)[C@H](NC(=O)N1CCCC1)C(=O)OC (stereo partly specified)	-2.7%	x	i
CCC(C)(C(=O)NC1CCCC1)N(CC1CCCO1)C(=O)CNC(=O)c1ccccc1 (stereo unspecified)	-3.8%	0.46	i
COc1cccc(N2CCN(C(=O)C3CCCN(S(=O)(=O)c4cnc[nH]4)C3)CC2)c1 (stereo unspecified)	-2.9%	2.4	i
COCCN(C(=O)Cc1cccs1)c1nnc(-c2ccncc2)s1	-8.4%	1.2	i
COC(=O)c1ccc(CSc2nc(N3CCOCC3)c3c(c2C#N)CC(C)(C)OC3)o1	-10%	0.35	i
CCOC(=O)C1CCCN(C(=O)CNC(=O)Cn2ccc3ccccc3c2=O)C1 (stereo unspecified)	-6.1%	-0.36	i
CCN(CC)S(=O)(=O)c1ccc(C(=O)C(C#N)c2ccccn2)cc1 (stereo unspecified)	4.6%	-1.3	i
COc1ccc(N=C2C(=Nc3ccc(OC)cc3)N(c3ccc(OC)cc3)C(=S)N2C(=O)c2ccc(OC)cc2)cc1	3.0%	x	i
Cc1cc(C(=O)Nc2cccnc2)on1	-1.5%	1.7	i
CCn1nnc(NC(=O)CSc2ccc(Cl)cc2)n1	-5.8%	-0.0084	i
CCOC(=O)c1cccc(NC(=O)CN(c2ccc(OC)cc2)S(=O)(=O)c2c(C)noc2C)c1	-8.0%	0.78	i
CSc1nnc(N(CCC#N)CCC#N)s1	-2.6%	0.86	i

Compounds from the list above with bromine:
molecule	Hsc70	WNV protease inh	MT1-MMP promoter
CCOC(=O)c1nnn(-c2nonc2N)c1CNc1ccc(C)c(Br)c1	-1.2%	0.4	i
O=S(=O)(NCc1ccncc1)c1ccc(Br)s1	-1.7%	-0.48	i
CC1(C)Cc2c(sc(NC(=O)c3ccc(Br)o3)c2C#N)CO1	-2.5%	-0.09	i
Cc1c(Br)cc(C(=O)NCc2ccco2)c(C)c1C	0.8%	0.87	i
Cc1nn(CC(O)c2ccccc2)c(C)c1Br (stereo unspecified)	2.5%	x	i

Additional structures follow:
molecule	Hsc70	WNV protease inh	MT1-MMP promoter
O=C(c1ccc(Br)o1)N1CCN(c2ncccn2)CC1	6.0%	x	i
CCOc1cc(NC(=O)c2ccco2)c(OCC)cc1NC(=O)COc1ccccc1C	2.9%	0.8	i
CC1CCc2cc(F)ccc2N1C(=O)c1cc2nc(-c3ccco3)cc(C(F)(F)F)n2n1 (stereo unspecified)	-7.7%	-0.11	i
CCOc1ccc(N2CC(C(=O)NC(C)C)CC2=O)cc1 (stereo unspecified)	-1.8%	-1.2	i
Cc1cc(C)nc(SCC(=O)Nc2ccc(S(=O)(=O)NCCO)cc2)n1	4.2%	x	i
COc1ccc(OCc2nnc(SCC(=O)N3CCCc4ccccc43)n2-c2ccc(C)cc2)cc1	4.0%	x	i
CCCCCCCCC(=O)N/N=C(\C)c1cccnc1	-1.1%	x	i
O=C(CCS(=O)(=O)Cc1ccccc1)Nc1nc2c(s1)CCCC2	5.8%	-0.82	i
O=c1[nH]c2ccc(NC(=S)Nc3ccc(Cl)cc3)cc2[nH]1	-3.3%	x	i
O=C(NCc1ccco1)c1nn2c(C(F)(F)F)cc(-c3cccs3)nc2c1Cl	-4.4%	x	i

Source: PubChem (several laboratories)

A portion of the library; the hit share may differ from the screen's.
